Screening results: PubChem BioAssay, National Center for Advancing Translational Sciences (NCATS)
AID923: qHTS Assay for Allosteric/Competitive Inhibitors of Caspase-1: Spectroscopic Profiling in AFC Spectral Region; compound fluorescence, AFC spectral region (405/520 nm); almost no hit is shown here; Potency, µM (doses to about 57.5 µM), for inactives: top-dose fluorescence increase, hits mostly activators; 75,000 compounds, 1.1% hits; AID 923, 2007; active means well fitted activation curve with a large enough effect; inconclusive means small, poorly fitted or top-dose-only effect;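 further: potency means the concentration at half of the fitted maximal effect; 0% is about no effect; scaled to a free AFC standard on each plate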
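Compound autofluorescence profiled at 405 nm ex/520 nm em during kinetic caspase 1 run (50 nM enzyme, 5 uM Ac-WEHD-AFC, HEPES pH 7.5, 10 mM DTT). Titration up to 57 uM; baseline from regression intercept, normalized to AFC standard curve.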
A647 fluor: qHTS Assay for Spectroscopic Profiling in A647 Spectral Region | Compound fluorescence, A647 channel (570/671 nm), Tris buffer | AID 592, 2007 | max dye-equivalent concentration, M | 59,000 tested, under 10 active; active means above 1 µM dye equivalent; inconclusive means 0.1 to 1 µM; inactive means 0.1 µM or less;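 further: values scaled relative to a standard on each plate; highest value over a series up to 38 µM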
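Compound fluorescence was measured in 100 mM Tris buffer, pH 8.0, after 15 min at room temperature, using 570 nm excitation and 671 nm emission filters. Signal was normalized to a per-plate Alexa 647 standard curve and expressed as dye-equivalent concentration at each compound concentration.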
Resorufin fluor: qHTS Assay for Spectroscopic Profiling in Resorufin Spectral Region; Compound fluorescence, resorufin region 547/598 nm, buffer; stronger effect = higher value; max dye-equivalent concentration, M; 59,000 compounds, 0.04% hits; active = above 10 nM dye equivalent; inconclusive = 1 to 10 nM; inactive = 1 nM or less; a few of its hits are not listed in these tables; further: highest value over a series up to 38 µM
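Intrinsic fluorescence profiled in the resorufin window (ex 547 nm, em 598 nm) after 15 min at room temperature in pH 8.0 Tris buffer (100 mM); responses normalized against a six-point resorufin standard series as dye-equivalent concentration.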
A488 fluor: qHTS Assay for Spectroscopic Profiling in A488 Spectral Region | 59,000 compounds, 0.1% hits | compound autofluorescence, A488 spectral region, dye equivalency; stronger effect = higher value | AID 591, 2007 | max dye equivalency, M; active = above 10 nM dye equivalent; inconclusive = 1 to 10 nM; inactive = 1 nM or less; about half of its hits are not listed in these tables;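 further: highest value over a series up to 38 µM; compound alone in buffer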
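Spectroscopic profiling in the A488 region: compounds in pH 8.0 Tris (100 mM), 15 min RT, CCD imaging with 480 nm excitation and 540 nm emission; responses normalized against A488 dye standards.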
TSHR agonist: qHTS Assay for Agonists of the Thyroid Stimulating Hormone Receptor. Thyrotropin receptor (Homo sapiens), P16473. HEK293-CNG-TSHR cells (CNG channel as cAMP sensor), membrane potential dye, cAMP. Potency, µM (top dose mostly 57.1 µM), for the others: at the top dose activation, hits mostly activators. 73,000 compounds, 0.48% hits. AID 926, 2007; active = well fitted activation curve of enough size with the parental cells flat; inconclusive = any curve in the parental cells; inactive = parental cells flat and receptor cells flat or falling; further: potency means the concentration at half of the fitted maximal effect; % of control where 0% means no effect; weak receptor curves with flat parental cells got no call and are not listed
Target sequence (P16473 whole entry, looked up): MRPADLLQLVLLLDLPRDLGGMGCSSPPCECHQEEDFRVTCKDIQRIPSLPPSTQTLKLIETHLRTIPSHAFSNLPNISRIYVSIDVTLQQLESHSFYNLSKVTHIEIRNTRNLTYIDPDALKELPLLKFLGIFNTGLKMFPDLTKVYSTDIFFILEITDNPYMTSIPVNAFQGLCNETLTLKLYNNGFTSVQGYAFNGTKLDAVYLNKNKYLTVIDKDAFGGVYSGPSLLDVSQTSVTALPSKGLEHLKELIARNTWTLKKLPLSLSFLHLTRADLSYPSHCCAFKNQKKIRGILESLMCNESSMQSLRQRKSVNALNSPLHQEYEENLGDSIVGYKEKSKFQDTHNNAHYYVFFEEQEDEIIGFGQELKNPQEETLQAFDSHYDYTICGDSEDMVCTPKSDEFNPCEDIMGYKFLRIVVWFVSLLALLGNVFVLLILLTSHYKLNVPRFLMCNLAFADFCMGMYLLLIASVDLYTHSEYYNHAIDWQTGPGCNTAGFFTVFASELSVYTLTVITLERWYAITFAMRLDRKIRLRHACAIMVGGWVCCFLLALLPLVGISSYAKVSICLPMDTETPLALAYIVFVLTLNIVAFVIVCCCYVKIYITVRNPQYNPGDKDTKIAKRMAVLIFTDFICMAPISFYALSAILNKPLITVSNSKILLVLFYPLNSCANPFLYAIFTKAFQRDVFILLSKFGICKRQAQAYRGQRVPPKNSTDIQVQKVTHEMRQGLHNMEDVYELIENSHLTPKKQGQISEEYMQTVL
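HEK 293 cells stably expressing TSHR and a cAMP-gated CNG channel; parental CNG-only cells as counterscreen. Cells preloaded 60 min with membrane potential dye plus 100 uM RO 20-1724, then compound 30 min; fluorescence read at 590 nm.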
* = called active by the depositor; i = inactive; ? = inconclusive; / = no result given; & = joins results of further samples; [ ] = remark or other dose. An excerpt, so the mix of outcomes need not match the whole.

| SMILES | TSHR agonist | A647 fluor | Resorufin fluor | A488 fluor | AID923 |
| --- | --- | --- | --- | --- | --- |
| COc1ccc(CN2C(=O)[C@@H]3C(c4ccccc4Cl)=NO[C@@H]3C2=O)cc1 | / | 4.5e-09 | i | i | -3.0% |
| COc1cc2c(C(=O)N3CCN(c4ccccc4)CC3)c(C)oc2cc1Br | / | 3e-09 | i | i | / |
| COC(=O)c1[nH]c(C)c(/C(O)=C2\C(=O)C(=O)N(CCN3CCOCC3)C2c2cccnc2)c1C (centres undefined) | / | 1.6e-09 | i | i | / |
| COCC(=O)Nc1ccc(C(N)=O)cc1 | -8.7% | / | / | / | 1.0% |
| Clc1ccc(N2CCN(Cc3c[nH]c4ncccc34)CC2)cc1 | ? | 1e-09 | i | i | 1.8%&-1.6% |
| O=C1CCCC2=C1C(c1cccc(Br)c1)n1nc(-c3ccco3)nc1N2 (centres undefined) | -6.7% | / | / | / | -0.6% |
| COc1ccc(Oc2ncc3nc(-c4cn(C)c5ccccc45)c(=O)n(C)c3n2)cc1 | -6.5% | 1e-09 | i | i | 6.7% |
| Cn1cc(Cl)c(C(=O)NC2CCCCCC2)n1 | 1.4% | 3e-09 | i | i | -1.7% |
| Cc1cc(C)c2nc(SCCC#N)nc(C)c2c1 | / | 6.16e-08 | i | i | / |
| Cc1ccc2cc(C(c3nnnn3C3CCCC3)N3CCN(c4ccccc4)CC3)c(=O)[nH]c2c1 (centres undefined) | 3.4% | 2.21e-08 | i | i | 3.4% |
| COc1ccc(/C=C(/C#N)c2cccnc2)cc1OC | / | 2.61e-08 | i | i | / |
| COc1cc2c(cc1OC)[C@@H]1CC(=O)[C@@H](CC(C)C)CN1CC2 | ? | / | / | / | 10.8% |
| CCc1ccc(C(=O)N2CCCC2)s1 | -3.1% | 3.1e-09 | i | i | -1.5% |
| COc1ccc(CC(=O)Nc2c3c(nn2-c2cccc(C)c2C)CS(=O)(=O)C3)cc1 | 4.2% | 1e-09 | i | i | 5.6% |
| Cc1csc(=Nc2ccc(S(=O)(=O)N3CCOCC3)cc2)n1Cc1ccco1 | / | 1e-09 | i | i | 0.7% |
| CC1CCC2C(=O)OC(CN3C(=O)c4ccccc4C3=O)CN2C1c1ccc(Br)cc1 (centres undefined) | 9.7%[11.4 µM] | / | / | / | -0.9%[11.5 µM] |
| COCCCNC(=O)C1CCCN(C(=O)Nc2ccc(OC)cc2)C1 (centres undefined) | -11.7% | 1e-09 | i | i | -1.3% |
| COc1cc(C)nc(NS(=O)(=O)c2ccccc2)n1 | / | 1e-09 | i | i | 0.6% |
| C=CCSc1nnc(Cc2c(C)[nH]c3ccccc23)o1 | 13.2% | / | / | / | 4.9% |
| COC(=O)c1[nH]c2cc(OC)c(OC)cc2c1NC(=O)CN1CCN(Cc2ccccc2)CC1 | -2.2% | 4.27e-08 | i | i | -1.5% |
| CC(C)C(C(=O)Nc1cccnc1)N1C(=O)c2ccccc2C1=O (centres undefined) | 4.1% | 1e-09 | i | i | 0.8% |
| CC(=O)c1cc(C#N)c(SCC(=O)OC(C)(C)C)nc1C | 4.7% | 2.12e-08 | i | i | 0.8% |
| O=C(c1cccc(OC(F)F)c1)N1CCN(c2ncccn2)CC1 | -0.7% | 1.27e-08 | i | i | -0.5% |
| Cc1nn(-c2ccccc2)c2c1C(=O)NC(=O)C(C)(C)C2 | / | 5.82e-08 | i | i | / |
| CCn1c(=O)cc(SCC(=O)Nc2cccnc2)c2ccccc21 | -16.4% | 4.7e-09 | i | i | 2.1% |
| OC1CCN(c2c3c(nc4cc(-c5cccc(F)c5)nn24)CCCC3)CC1 | -9.9% | 4.29e-08 | i | i | 1.4% |
| c1ccc2oc(C3=NCCN3)cc2c1 | 5.9% | / | / | / | -0.1% |
| COc1ccc(CC(=O)Nc2cccc(-c3nnc(-c4ccco4)o3)c2)cc1 | / | 1.2e-09 | i | i | / |
| FC(F)(F)c1cc(-c2ccccc2)nc(NCC2CCCO2)n1 (centres undefined) | / | 3.14e-08 | i | i | -1.0% |
| CCC(Oc1ccccc1)C(=O)NCc1cccnc1 (centres undefined) | -18.2% | 1.3e-09 | i | i | 0.7% |
| O=C(O)C(NS(=O)(=O)c1cccc2cccnc12)c1ccccc1 (centres undefined) | -4.7% | / | / | / | -2.8% |
| CCOC(=O)c1ccc(NC(=O)NC2CCN(CC(=O)NCc3ccc4c(c3)OCO4)CC2)cc1 | 2.9% | 3.6e-09 | i | i | 0.7% |
| CCCOc1ccc(C2C(C#N)=C(N)Oc3nc[nH]c(=O)c32)cc1OC (centres undefined) | -7.4% | 1.4e-09 | i | i | 0.3% |
| CCN(CC)S(=O)(=O)c1csc(C(=O)NC2CCCCC2)c1 | ? | 1e-09 | i | i | 2.2% |
| CCOc1ccc(S(=O)(=O)n2ccnc2)c2ccccc12 | 6.4% | / | / | / | -1.1% |
| Cc1cccc(NC(=O)CN(C)S(=O)(=O)c2ccc(Cl)cc2)n1 | 18.6% | 4.7e-09 | i | i | -0.4% |
| CCOC(=O)c1cnc(-n2nc(C)cc2C)nc1Nc1ccc(N(C)C)cc1 | -14.3% | 4.48e-08 | i | i | 1.7% |
| CC(C)C(=O)Nc1cccc(NC(=O)CCN2C(=O)c3ccccc3S2(=O)=O)c1 | 1.3% | 3.21e-08 | i | i | -1.2% |
| CCOC(=O)Cc1csc(NC(=O)CSc2nnnn2-c2ccc(CC)cc2)n1 | ? | 2.6e-09 | i | i | 0.9% |
| CC(O)c1nc2ccccc2n1C1CCCCC1 (centres undefined) | 5.4% | 9.6e-09 | i | i | -1.0% |
| C[C@@H](NC(=O)c1coc(=O)c(Br)c1)c1ccccc1 | 4.9% | / | / | / | 4.1% |
| CCn1cc(C(=O)NC2CCCC2)c(=O)c2cc(S(=O)(=O)N3CCOCC3)ccc21 | -7.9% | 3.3e-09 | i | i | 0.4% |
| CCCCOc1[nH]c2nc(-c3ccco3)n(Cc3ccco3)c(=N)c2c1C#N | 5.7% | 3.27e-08 | i | i | 1.0% |
| COc1ccc(CCNC2CC(=O)N(CCc3ccccc3)C2=O)cc1OC (centres undefined) | ? | / | / | / | 0.1% |
| CN(C)C(=O)c1ccc(-c2ccc3ncnc(Nc4ccc(F)cc4)c3c2)cc1 | 2.9% | 1e-09 | i | i | 3.1% |
| O=C(Nc1ccc2c(c1)OCO2)N1CCN(c2cccc(C(F)(F)F)c2)CC1 | 5.4% | 3.95e-08 | i | i | -0.9% |
| C[C@H](OP(=O)(O)O)[C@H](N)C(=O)O | 0.0%[11.4 µM] | 1e-09 | i | i | 2.0%[11.5 µM] |
| O=C(CN(C(=O)CCC(=O)Nc1nccs1)c1ccc(F)cc1)NCC1CCCO1 (centres undefined) | 2.8% | 1e-09 | i | i | -1.1% |
| COCN(C#N)c1nc(OC)nc(OC)n1 | -0.4% | / | / | / | -4.0% |
| CCCCC(CC)C(=O)Nc1ccc(Cl)cn1 (centres undefined) | ? | 3.04e-08 | i | i | -0.4% |

Given with each value named: two of the compounds above.
> CCOC(=O)c1cnc(-n2nc(C)cc2C)nc1Nc1ccc(N(C)C)cc1
  TSHR agonist: -14.3% | A647 fluor: 4.48e-08 | Resorufin fluor: i | A488 fluor: i | AID923: 1.7%

> C[C@H](OP(=O)(O)O)[C@H](N)C(=O)O
  TSHR agonist: 0.0%[11.4 µM] | A647 fluor: 1e-09 | Resorufin fluor: i | A488 fluor: i | AID923: 2.0%[11.5 µM]

Reformatted as labelled records: entries from further up.
> C[C@H](OP(=O)(O)O)[C@H](N)C(=O)O
  TSHR agonist = 0.0%[11.4 µM]; A647 fluor = 1e-09; Resorufin fluor = i; A488 fluor = i; AID923 = 2.0%[11.5 µM]
> O=C(CN(C(=O)CCC(=O)Nc1nccs1)c1ccc(F)cc1)NCC1CCCO1 (centres undefined)
  TSHR agonist = 2.8%; A647 fluor = 1e-09; Resorufin fluor = i; A488 fluor = i; AID923 = -1.1%

Continuation:
| SMILES | TSHR agonist | A647 fluor | Resorufin fluor | A488 fluor | AID923 |
| --- | --- | --- | --- | --- | --- |
| O=C(Nc1ccccn1)c1cccc(S(=O)(=O)N2CCOCC2)c1 | -6.4% | / | / | / | -0.7% |
| CCOC(=O)c1oc2c(O)c(O)ccc2c(=O)c1-c1nncn1-c1ccccc1 | -17.4% | 1e-09 | i | i | -0.3% |
| CCN1CCN(c2oc(COc3ccc(-c4ccccc4)cc3)nc2C#N)CC1 | ? | 1.09e-08 | i | i | 0.9% |
| CCOC(=O)C(Cc1c[nH]c2ccccc12)NC(=O)c1ccco1 (centres undefined) | 9.1% | 9.2e-09 | i | i | -1.0% |
| Cc1cc2c(cc1C)/C(=C\C(N)=O)NC(C)(C)C2 | 5.2% | 1e-09 | i | i | 1.2% |
| CC1=C(CC[C@H](C)CO)O[C@@H]2C[C@@H]3[C@H]4CC[C@H]5C[C@@H](O)CC[C@]5(C)[C@@H]4CC(=O)[C@@]3(C)[C@@H]12 | -4.8%[11.4 µM] | 1e-09 | i | i | -1.6%[11.5 µM] |
| CCN1C(=O)CC(N2CCN(c3ccc(Cl)cc3)CC2)C1=O (centres undefined) | -3.4% | / | / | / | 2.7% |
| COc1cc(-c2nnc(SCC(=O)Nc3cc(C)on3)n2C)cc(OC)c1O | -6.4% | 2.1e-09 | i | i | -1.9% |
| Cn1cnc2cc(NS(=O)(=O)c3ccc(Br)cc3)ccc21 | -9.2% | 3.41e-08 | i | i | -1.3% |
| O=C(CSc1nc(-c2ccccc2)cc(=O)[nH]1)Nc1ccccn1 | 6.7% | 4.4e-09 | i | i | 1.0% |
| CCCN(CCC)S(=O)(=O)c1ccc(C(=O)NCc2ccc3c(c2)OCO3)cc1 | 25.8% | / | / | / | -0.8% |
| CCCCN(CC)C(=O)C1CCC(=O)N(c2ccc(OC)cc2)C1c1ccc(OC)c(OC)c1 (centres undefined) | -1.1% | 2.24e-08 | i | i | -0.3% |
| CCc1nnc(NC(=O)CSc2nnc(C)n2CC2CCCO2)s1 (centres undefined) | -0.6% | 4e-09 | i | i | 1.1% |
| Cc1ccccc1N1CCN(Cc2cccc(C(=O)O)c2)CC1 | -0.7% | 2.6e-09 | i | i | 0.1% |
| O=C(NCCO)c1ccc(Cc2nc3ccccc3[nH]2)cc1 | -6.5% | / | / | / | 0.8% |
| N#Cc1cccc(NC(=O)Nc2cccs2)c1 | 0.6% | 2.14e-08 | i | i | 8.4% |
| COc1cc2c(cc1OC)/C(=C/C#N)NC(C)(C)C2 | 10.5% | 1e-09 | i | i | 4.9% |
| Cc1ccc(C)c(NS(=O)(=O)c2cc(C(N)=O)ccc2C)c1 | 12.3% | 1.2e-09 | i | i | 0.2% |
| Cc1ccc(NC(=O)Cn2cccc2)cc1Cl | ? | 2.51e-08 | i | i | -1.8% |
| Cc1cc(N2CCN(C(=O)c3ccco3)CC2)n2ncc(-c3ccccc3)c2n1 | 0.8%[11.4 µM] | 7.4e-09 | i | i | 1.4% |
| Cc1cc(C)cc(OCC(=O)N2CCCCCC2)c1 | 15.1% | 1.07e-08 | i | i | -2.9% |
| COc1ccc(C(c2nnnn2C2CCCC2)N2CCC(C)CC2)cc1 (centres undefined) | ? | 5.1e-09 | i | i | 2.4% |
| COC(=O)CSc1nnc(C2COc3ccccc3O2)n1-c1ccccc1 (centres undefined) | -6.5% | 1.46e-08 | i | i | 1.4% |
| CCOC(=O)c1c(C)nc2c(C#N)cnn2c1C | 15.5% | 6.4e-09 | i | i | 0.5% |
| COc1ccc(-c2cc(C(=O)NCC(C)C)no2)cc1 | 3.9% | 1.55e-08 | i | i | 0.5% |
| CC(C)C(c1nnnn1CC1CCCO1)N1CCN(Cc2ccc3c(c2)OCO3)CC1 (centres undefined) | / | 1.4e-09 | i | i | -2.2% |
